TRPML1 inh: inhibitors of human TRPML1 channel; 390,000 tested, 0.02% active; TRPML1-inducible cells, Ca2+ dye fluorescence, FDSS; hits give low values; inhibition of EC80 agonist-evoked calcium signal; Q9GZU1; activity change, negative = inhibition, % (concentration not given with the values); in the data active means activity change below about -50%; inconclusive means about -30% to -50%; inactive means above about -30%;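 also: stimulus is agonist 54-4 at its EC80 concentration; % is scaled to controls: 0 for no effect and ±100 for the full control effect; compound concentration not given in the record; the text of the record puts the active cut at -80%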
Target sequence (Q9GZU1 whole entry, looked up): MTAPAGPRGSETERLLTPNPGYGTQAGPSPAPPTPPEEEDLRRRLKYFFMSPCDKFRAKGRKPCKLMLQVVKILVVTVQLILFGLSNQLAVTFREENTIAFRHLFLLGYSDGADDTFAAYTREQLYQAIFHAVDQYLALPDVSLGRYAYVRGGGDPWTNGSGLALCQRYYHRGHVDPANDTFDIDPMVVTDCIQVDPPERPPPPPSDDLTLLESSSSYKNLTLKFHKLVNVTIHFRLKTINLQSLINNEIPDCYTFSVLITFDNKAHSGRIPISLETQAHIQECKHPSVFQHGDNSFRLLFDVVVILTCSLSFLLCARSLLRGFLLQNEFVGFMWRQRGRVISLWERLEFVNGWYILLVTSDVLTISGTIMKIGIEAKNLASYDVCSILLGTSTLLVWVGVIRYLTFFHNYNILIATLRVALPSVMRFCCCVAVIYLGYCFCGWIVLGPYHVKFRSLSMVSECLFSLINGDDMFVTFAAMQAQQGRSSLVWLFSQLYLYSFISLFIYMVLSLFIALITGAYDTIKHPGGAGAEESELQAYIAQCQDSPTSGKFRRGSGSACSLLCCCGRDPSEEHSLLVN
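TRPML1-DL cells, Tet-induced overnight (~16 h, 37 °C) at 1,500 cells/well, were loaded with Ca8 no-wash dye plus quencher for 45-90 min at room temperature. Compounds were pinned during FDSS kinetic reading; agonist 54-4 at EC80 (4 uM final) then added.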
gsp antag: antagonizes gsp, the McCune-Albright syndrome mutation | 340,000 tested, 0.4% active | gsp-mutant cells, cAMP HTRF, 30 min; control for the full effect not named in the record | Potency, µM (doses to about 76.9 µM), for inactives: top-dose activity change, negative = inhibition, actives largely listed as inhibitors | AID 624288; active = falling curve of any shape with a large fitted effect; inconclusive = falling curve, mostly with a smaller effect; inactive = flat or rising curve; cell line not stated here;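 also: intracellular cAMP measured with PDE inhibitor Ro 20-1724 present during compound exposure; potency is read from the fitted curve at half-maximal effect; % is scaled to controls: 0 for no effect and ±100 for the full control effect; nearly all actives have a fitted effect of over 65% in size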
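G418-selected cells were plated in DMEM/10% FBS for 16-24 h at 37C, then treated with compounds plus the PDE inhibitor […] (300 uM solution added) for 30 min at 37C. Intracellular cAMP was measured by HTRF after 30 min lysis at room temperature.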
ClpP mod: qHTS Assay for Activators of ClpP; 340,000 tested, 1.9% active; ATP-dependent Clp protease proteolytic subunit (Bacillus subtilis (strain 168)), P80244; AID 651965, 2013; purified B. subtilis ClpP, FRET peptide cleavage, 20 min; Potency, µM (titrated, usually from 57.5 µM), for the others: top-dose activity change, negative = active; active = well fitted falling curve with a large enough effect; inconclusive = small, poorly fitted or top-dose-only effect; inactive = no such curve, though single readings can be large or run the other way; also: potency is read from the fitted curve at half-maximal effect; the source files actives as falling curves though it sought activators and does not explain the sign; nearly all actives have a fitted effect of over 65% in size; many hits overshoot -100%
Target sequence (P80244 whole entry, looked up): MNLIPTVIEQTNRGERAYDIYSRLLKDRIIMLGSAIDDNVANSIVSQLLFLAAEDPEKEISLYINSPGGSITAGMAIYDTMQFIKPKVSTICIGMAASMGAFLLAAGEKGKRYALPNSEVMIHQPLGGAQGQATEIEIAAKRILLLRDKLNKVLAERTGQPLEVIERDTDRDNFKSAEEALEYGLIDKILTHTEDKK
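Purified B. subtilis ClpP, 10 microg/mL final in Tris/HCl pH8 with KCl, BSA, glycerol and Tween-20, cleaved an Abz/nitrotyrosine-quenched decapeptide. Fluorescence (ex 320, em 430) was read at 0 and 20 min at room temperature. Delta was normalized to 5.8 microM ADEP and DMSO/no-enzyme controls.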
TRPML1 ag: activates the human TRPML1 channel; AID 624414; 410,000 tested, 0.12% active; TRPML1-expressing cells, Ca2+ dye fluorescence, FDSS; host cell line not named in the record; reference of the full effect not given here; activation, % (concentration not given with the values); in the data active = activation above about 50%; inconclusive = about 30% to 50%; inactive = below about 30%; also: 0% is about no effect; the text of the record puts the active cut at 80%
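Tet-induced TRPML1-DL cells, 1,500 per well, cultured overnight, were loaded with a no-wash Ca2+ dye for 45–90 min. Calcium fluorescence was recorded on the FDSS for 110 s after compound addition, before the EC80 agonist (4 uM 54-4) was added.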
Menin-MLL FL inh: displaces fluorescein MLL peptide from human menin | AID 1766 | FP activity change, % at 61.4 µM | 290,000 tested, under 10 active | Fluorescence polarization, fluorescein-MLL peptide displacement from menin; inconclusive = falling polarisation curve, or a change in total fluorescence; inactive = total fluorescence flat and polarisation flat or rising; no compound was filed as active; the % refers to the polarisation; negative = inhibition;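 also: % of control where 0% means no effect; inhibitors lower the polarisation; unlabelled MLL peptide was the positive control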
gsp agonist: activates gsp, the McCune-Albright syndrome mutation; gsp mutant cells, cAMP HTRF, 30 min; control for the full effect not named in the record; Potency, µM (highest dose often 76.9 µM), without a hit: top-dose activation (cAMP increase), usual class: activators; 340,000 tested, 0.13% active; AID 624287; active = well fitted activation curve with a large enough effect; inconclusive = small, poorly fitted or top-dose-only effect, or another doubt; inactive = no such curve, though single readings can be large or run the other way; cell line not stated here;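 also: phosphodiesterase inhibitor Ro 20-1724 added with compounds to block cAMP breakdown; potency is read from the fitted curve at half-maximal effect; nearly all actives have a fitted effect of over 60% in size; about a fifth of the inactives were tested at one dose only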
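Cells stably selected in G418 were plated at 2000/well, grown 16-24 hr, then given compounds in DMSO with the PDE inhibitor […] (300 uM solution added) for 30 min at 37C; cAMP was read by HTRF.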
An asterisk follows results filed as active; ? = inconclusive; . = not tested or not shown; & = joins results of further samples; [ ] = dose if it differs, or a comment.

SMILES	TRPML1 inh	gsp antag	ClpP mod	TRPML1 ag	Menin-MLL FL inh	gsp agonist
COc1ccccc1NC(=O)COC(=O)C1CC2C=CC1C2 (stereo not drawn)	17.7	8.4%	.	-0.8	1.3	-4.1%[15.4 µM]
COc1ccc(N2CCN(S(=O)(=O)c3ccc4c(c3)C(C(C)C)C(=O)N4)CC2)cc1 (stereo not drawn)	-0.1	.	4.3%	-0.7	.	.
C=C(C(=O)c1ccccc1)C(C)C(=C)C(=O)c1ccccc1	10.8	6.3%	2.3%	3.7	3.5	-16.4%
Cc1c(C(=O)N2CCC(C)CC2)sc2ncnc(N(C)c3ccccc3)c12	10.1	2.8%	-0.3%	1.1	0.8	?
O=c1c(-c2n[nH]c(=S)n2-c2ccccc2)cccn1Cc1cccc(Cl)c1	14.2	-30.0%	-1.1%	-0.8	0.5	1.3%[15.4 µM]
COc1cc(/C=C/C(=O)O)cc(S(=O)(=O)Nc2ccc(S(=O)(=O)N3CCCCC3)cc2)c1OC	3.6	3.5%	-0.3%	0.1	.	-0.1%[15.4 µM]
CCOc1ccc(Br)cc1S(=O)(=O)Nc1cccc(S(=O)(=O)N(C)c2ccccc2)c1	-20.6	-5.3%	-3.8%	-0.2	-0.8	-14.3%
CC(C)=CCN1CCN(Cc2cc(C(C)C)n[nH]2)CC1CCO (stereo not drawn)	-13.1	9.2%	.	-0.1	-2.6	-1.2%[15.4 µM]
CCN(CC)C(=O)CSc1ncnc2c1nnn2-c1ccc(OC)cc1	-10.5	19.3%	-0.7%	1.1	-1.6	16.9%
CCC[N+](CC#Cc1ccccc1)(CCC)CC(=O)OC	-17.1	11.0%	-1.8%	0.2	-0.3	16.8%[15.4 µM]
O=S(=O)(NC1CCN(Cc2ccccc2)CC1)c1ccc(Cl)cc1	2.1	-5.7%	2.0%	0.1	1.0	7.4%[15.4 µM]
CCOC(=O)C1(Cc2ccccc2C(F)(F)F)CCN(Cc2ccc(COC)o2)CC1	5.8	-13.6%	.	-0.3	-1.0	8.0%[15.4 µM]
Cc1ccc(-c2csc(C3=C(O)CN(NC(=O)c4ccco4)C3=N)n2)cc1	27.8	2.5%	.	-0.3	-1.2	0.6%[15.4 µM]
O=C(Cc1ccccc1)Nc1c(Cl)ccc2nsnc12	-13.4	2.8%	.	0.1	1.0	-25.0%
CC1CCc2nc(/C(C#N)=C/c3ccncc3)sc2C1 (stereo not drawn)	6.0	-3.3%	.	0.9	10.8	3.9%[15.4 µM]
CCn1c(NCc2cc(Cl)ccc2O)nc2ccccc21	-6.4	-24.3%	-4.3%	4.8	0.1	-15.7%
N#C/C(=C/c1cc(Br)cs1)C(=O)NCC1CCCO1 (stereo not drawn)	-8.5	2.1%	-3.8%	-0.8	-6.7	-15.8%
CCOC(=O)c1c(C)[nH]c(C)c1C(=O)COC(=O)CNC(=O)c1ccc(OCC)cc1	-7.4	-13.9%	-1.6%	-0.9	4.1	-14.9%
Cc1cc(N2CCN(c3nc(-c4ccc([N+](=O)[O-])cc4)cs3)CC2)c2ccccc2n1	5.7	-27.0%	.	-0.5	1.6	15.2%[15.4 µM]
COc1ccc2c(=O)c(Oc3ccc(C(=O)O)cc3)c(C(F)(F)F)oc2c1	3.2	-14.5%	-1.0%	-0.4	1.2	21.4%
CC(=O)c1ccc(NC(=O)Cn2c(=O)nc(-c3ccccc3)c3ccccc32)cc1	?	.	19.2%	1.0	.	.
COc1ccc(/C=C2/Sc3ccc(C(=O)N4CCOCC4)cc3NC2=O)cc1OC	3.9	18.9%	1.5%	0.5	0.7	-21.0%
Cc1ccc(C)c(Cn2c3ccccc3c3cnn(CC(=O)NCCC4=CCCCC4)c(=O)c32)c1	5.5	.	-1.2%	0.6	.	.
CCOC(=O)N1CCC(NC(=O)CS(=O)(=O)Cc2nc(-c3ccccc3C)oc2C)CC1	-11.0	2.7%	-0.8%	0.2	4.8	9.4%
CCCCC(=O)C1CCN(Cc2ccccc2)CC1	5.7	9.7%	-5.7%	-0.4	0.4	2.4%
Cc1c(N2C(=O)C3C4C=CC(C4)C3C2=O)c(=O)n(-c2ccccc2)n1C (stereo not drawn)	-2.6	3.7%	.	-0.8	0.9	-8.4%[15.4 µM]
O=C(O)c1cc2ccc3cccc4ccc(c1)c2c34	-3.6	-6.4%	4.1%	0.3	4.0	2.3%
COc1ccc(C(CCN2CCOCC2)c2c(OC)cc(OC)c3c(C)cc(=O)oc23)cc1 (stereo not drawn)	-1.2	10.1%	-21.5%	-0.5	2.4	.
OC(c1ccccc1)(c1ccccc1)C1CCN(C(=S)NCCc2ccccc2)CC1	3.6	-23.9%	.	-0.3	-0.7	17.0%[15.4 µM]
O=C1NC(c2ccco2)Nc2ccccc21 (stereo not drawn)	-0.6	2.1%	10µM*	-0.8	-0.5	5.8%
N#Cc1ccc(CSc2nnc(-c3ccccn3)n2-c2ccc(Cl)cc2)cc1	-6.5	-17.8%	-3.8%	1.6	2.8	-70.9%[inhibitor]
N#CCCN(CCC#N)C(=O)c1ccc2c(c1)OCO2	-0.2	15.8%	2.0%	-0.4	1.9	0.8%
CCOC(=O)[C@@H]1[C@H]2COc3ccc(Br)cc3[C@H]2N2C(=O)N(c3ccc(C)cc3)C(=O)[C@]12C	17.3	-8.1%	0.7%	0.9	-1.8	-17.6%
Cc1ccc2c(Sc3ccc(Cl)cc3)c(C(=O)NCCC(C)C)[nH]c2c1	-11.0	.	-1.9%	-0.2	.	.
Cc1ccccc1NC(=O)CSc1nnc(NC(=O)c2ccco2)s1	21.7	-15.5%	-2.2%	1.0	.	19.6%
O=C(c1cccc(S(=O)(=O)NCc2ccccc2)c1)N1CCCCC1	30.9	2.5%	-2.8%	0.6	.	-0.8%
O=C(NCC1CCCO1)c1cccc(N2CCCC2=O)c1 (stereo not drawn)	-5.7	13.2%	-1.9%	-0.2	-5.1	-20.2%
O=C(CCNS(=O)(=O)c1ccccc1C(F)(F)F)N1CCN(c2ccccc2O)CC1	32.7	-10.8%	3.3%	-0.2	.	-2.5%
Fc1ccc(-c2ccc3c(c2)C2CC3CCN2)cc1 (stereo not drawn)	32.3	-1.2%	0.2%	1.8	.	.
COc1ccc(Cl)cc1-n1nnc(-c2nsc(NC(=O)c3ccccc3Cl)n2)c1C	-10.9	.	-0.6%	-0.7	.	.
CCCCC(CCC(=O)O)(C(=O)OCC)c1csc(Nc2ccc(OCC)cc2)n1 (stereo not drawn)	-4.7	-15.0%	1.2%	1.2	1.2	-0.6%
Cc1cc(C)c(C)c(OCCOCCNCc2ccccc2)c1	7.4	10.2%	-0.7%	-0.1	2.2	-0.2%
Nc1ccn(CCCNC2CCN(Cc3ccccc3)CC2)c(=O)n1	-6.4	.	0.0%	-0.5	.	1.0%
CCOC(=O)C1=C(C(F)(F)F)Nc2ncnn2C1c1cccc(OC)c1OC (stereo not drawn)	-1.3&11.9	-19.4%	-0.1%&-1.9%	-1.0&1.1	0.0	13.2%
CNc1oc(Cc2cccc3ccccc23)nc1C#N	-9.1	-17.9%	-5.7%	1.9	0.0	-23.4%
COc1ccc(C(=O)C2CCCN(Cc3cccn3-c3ccccn3)C2)c(C)c1 (stereo not drawn)	-8.0	-3.6%	.	0.6	-1.2	19.0%[15.4 µM]
COc1ccc(-c2cc(C(=O)N(C)Cc3nc4ccccc4c(=O)[nH]3)c3ccccc3n2)cc1OC	-0.2	-1.8%	1.2%	0.0	.	1.0%[15.4 µM]
CCN(CC(=O)Nc1ccccc1C(=O)Nc1ccccc1)Cc1nc2ccccc2c(=O)[nH]1	8.8	-4.5%	.	0.7	-7.8	6.0%[15.4 µM]
OC1CCNC(=S)N1c1ccccc1 (stereo not drawn)	-2.0	11.2%	0.1%	0.7	-1.3	-11.5%[15.4 µM]
O=C1[C@@H](Oc2ccccc2)[C@@H](c2cnc3ccccc3c2)N1c1ccccc1	-4.2	-7.9%	1.1%	2.9	.	.

The listing continues.
SMILES	TRPML1 inh	gsp antag	ClpP mod	TRPML1 ag	Menin-MLL FL inh	gsp agonist
CCOc1ccc(S(=O)(=O)n2cnc3ccccc32)cc1	11.2	10.3%	.	-0.3	-8.7	-72.2%[inhibitor]
NC(=O)C1CCN(C2=C(NS(=O)(=O)c3ccc(Br)cc3)C(=O)c3ccccc3C2=O)CC1	4.5	?	4.4%	1.1	-2.4	25.6%
Cc1cc(-c2ccccc2)nc2[n+]1CCN2C	-3.4	3.2%	28.2µM*	-0.3	2.5	6.3%
C=CCN1C(=O)c2ccc(C(=O)N3CCN(c4ccccc4OC)CC3)cc2C1=O	4.8	10.4%	0.9%	-0.2	.	-5.1%
CC(/C=C/c1ccccc1F)=N\NC(=O)c1cccc(F)c1	16.2	.	.	0.3	-0.9	15.4%[15.4 µM]
CCc1ccc(C(=O)c2cnc3ccc(OC)cc3c2N2CCN(CC)CC2)cc1	2.1	7.8%	0.1%	0.1	1.4	51.8%
CSCCOC(=O)COc1ccc(/C=N/NC(=O)c2nn(C)cc2Cl)cc1	4.4	5.3%	0.7%	-0.4	3.8	-11.6%
Cc1nn(-c2ccccc2)c(C)c1C(=O)OCC(=O)N1CC(=O)Nc2ccccc21	-3.6	20.6%	-4.6%	2.8	-0.8	4.0%
Cc1csc2c(=O)[nH]cnc12	-2.5	9.2%	.	-0.8	-0.5	17.4%[15.4 µM]
CC[C@H](C)[C@H]1CNC(=S)N1CC1CCN(CCCCc2ccccc2)CC1	-13.9	2.8%	0.5%	-0.4	.	.
Cc1cc(NS(=O)(=O)c2ccc(NC(=O)c3ccc(Cl)cc3[N+](=O)[O-])cc2)no1	-3.1	-3.9%	-7.1%	-0.1	0.3	-3.4%
CCc1c(C)sc2c1CCN(C(=O)Nc1cc(OC)c(OC)c(OC)c1)C2c1ccccc1 (stereo not drawn)	-1.0	.	-1.1%	-1.1	.	.
Cc1ccc(NC(=O)CSc2nc(=O)n(Cc3ccco3)c3c2CCC3)cc1F	15.5	.	-6.4%	2.4	.	.
CN(C)C(=O)C(OC(=O)c1ccc2ccccc2n1)c1ccccc1 (stereo not drawn)	59.5	-7.3%	.	9.6	1.5	-36.3%[inhibitor]
CCOC(=O)CN1C(=O)C2(OCCCO2)c2cc(Br)ccc21	1.7	-8.4%	0.9%	-0.7	0.0	3.7%[15.4 µM]

Single entries from the entries so far.
CCc1c(C)sc2c1CCN(C(=O)Nc1cc(OC)c(OC)c(OC)c1)C2c1ccccc1 (stereo not drawn) in ClpP mod shows -1.1%
CCOC(=O)CN1C(=O)C2(OCCCO2)c2cc(Br)ccc21 in TRPML1 inh shows 1.7

Bioassay records from PubChem BioAssay.
